CSC inhib: cancer stem cell viability inhibitors, primary screen, luminescence; cancer stem cell-like cells viability; inhibition, % at 7.5 µM; 300,000 tested, 1.1% active; AID 2717, 2010;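 active = mean at 75% or more and at least half the replicates too; inconclusive = mean and replicates disagree; tested in HMLE shEcad cells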;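 note: 0% = median of negative and 100% = median of positive control wells; the first replicate is given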
UUG fidelity: modulators of yeast start codon fidelity, primary screen, whole organism, S. cerevisiae, single point, plate reader. S. cerevisiae UUG-firefly luciferase reporter, luminescence/redox ratio. activity score, % at 18.7 µM. 350,000 tested, 0.13% active. AID 602363, 2012;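 active = replicate mean at a twofold rise or more, about +100% in these data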;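 note: firefly luciferase made from a UUG start codon reports start codon fidelity; reporter light over untreated wells divided by growth signal over untreated wells; some hits fall short of that in this replicate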
Env fusion inh: inhibitors of HIV-1 Env-driven cell-cell fusion, primary screen, HeLa-JRFL effector, CEM21 target cells, luciferase; inhibition, % at 12.3 µM; 360,000 tested, 1.1% active; AID 651610, 2012;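 active = mean replicate inhibition score of at least 50 and every replicate individually at or above 50; inconclusive = only one of the two criteria met; inactive = mean below 50 and not all replicates reaching 50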;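 note: 0% = plate neutral controls and 100% = maraviroc near 300 nM; one replicate is shown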
Rce1 inhib: yeast Rce1p protease inhibitors, primary screen, biochemical, fluorescence, cell-free homogeneous. calls only. 290,000 tested, 0.27% active. CAAX prenyl protease 2 (Saccharomyces cerevisiae (strain ATCC 204508 / S288c)), Q03530. AID 2563, 2010. yeast membranes, quenched prenylated peptide cleavage fluorescence;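 active = fall in fluorescence gain of 50% or more versus controls, with final raw signal at or below 3038400; inconclusive = same 50% fall but final raw signal above 3038400; inactive = fall in fluorescence gain under 50%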;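 note: plate controls were neutral control wells for no effect and wells lacking membranes for full effect; tested at 10 µM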
Target sequence (Q03530 whole entry, looked up): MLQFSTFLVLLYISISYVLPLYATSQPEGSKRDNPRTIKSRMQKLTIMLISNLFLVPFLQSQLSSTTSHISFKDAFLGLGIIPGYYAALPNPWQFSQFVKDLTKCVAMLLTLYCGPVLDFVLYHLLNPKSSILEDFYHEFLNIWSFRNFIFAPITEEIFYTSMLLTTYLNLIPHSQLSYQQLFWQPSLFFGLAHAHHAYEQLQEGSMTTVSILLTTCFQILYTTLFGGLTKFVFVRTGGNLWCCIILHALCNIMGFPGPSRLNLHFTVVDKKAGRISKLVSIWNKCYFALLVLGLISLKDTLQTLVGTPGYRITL
PABP FP inh: PABP poly(A) RNA binding inhibitors, primary screen, biochemical, fluorescence polarization, uHTS | inhibition, % at 35 µM | 290,000 tested, 1% active | Polyadenylate-binding protein 1 (Homo sapiens), P11940 | AID 2014, 2009;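 active = 50% or more with normal probe brightness, or confirmed in later tests; inconclusive = above 50% with abnormal brightness, or retests that disagree; inactive = below 50% or failed in later tests; about a fifth of its hits are not listed in these tables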;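 note: calls also rest on retests at 20 µM and on dose response follow-up; controls were probe without protein and protein plus probe with vehicle; some compounds called inactive have numbers as strong as hits; many hits fall short of the cut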
eIF4H FP inh: human eIF4H binding inhibitors, primary screen, translation initiation inhibitor project, biochemical, uHTS, fluorescence polarization; eIF4H fluorescence polarization binding assay; Eukaryotic translation initiation factor 4H (Homo sapiens), Q15056; inhibition, % at 35 µM; AID 2012, 2009; 290,000 tested, 0.94% active;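 active = 50% or more with normal probe brightness, or confirmed in later tests; inconclusive = above 50% with abnormal brightness, or retests that disagree; inactive = below 50% or failed in later tests; about a fifth of its hits are not listed in these tables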;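 note: calls also rest on retests at 20 µM and on dose response follow-up; 0% = protein and probe with vehicle and 100% = probe without protein; strong numbers were not always called active; many hits fall short of the cut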
MT1-MMP act inh: blockers of MT1-MMP proenzyme processing, primary screen, HT1080 RFP-PRO-GFP cells, GFP/RFP fluorescence; Matrix metalloproteinase-14 (Homo sapiens), P50281; GFP/RFP ratio fluorescence, overnight; percent of plate control window, DMSO zero; GFP/RFP ratio change, % at 20 µM; 360,000 tested, 0.061% active; AID 651647, 2012;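 active = GFP/RFP ratio change of at least 30% with cell ATP level not reduced by more than half and red fluorescence within 50% of control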; note: strong numbers were not always called active
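Test system: HT1080 cells expressing an RFP-PRO-GFP fluorescent reporter construct / Compound dosing: single-point 20 µM compound, 1% DMSO / Schedule: cells overnight before dosing, compound overnight, 37 °C, 5% CO2 / Evaluation: GFP/RFP fluorescence ratio / Control set: DMSO and RFP-L50D-GFP cell wells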
eIF4H FP inh retest: second read-out of eIF4H FP inh, no call of its own (marks repeat the call); inhibition, %; compound at 20 µM; confirmation average;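 mean of two retest wells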
PABP FP inh retest: recorded beside PABP FP inh, whose call it bears; inhibition, %; compound at 20 µM; confirmation repeats;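 mean of two retest wells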
MT1-MMP act inh RFP: further read-out of MT1-MMP act inh, marked with its call; RFP signal change, %; measured here: RFP expression control read;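 0 = vehicle wells; hits needed this value within 50% of zero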
Active calls of the source: *; i = inactive; ? = inconclusive; / = not tested or not shown. This is a subset; rates above refer to the full screens.

SMILES	CSC inhib	UUG fidelity	Env fusion inh	Rce1 inhib	PABP FP inh	eIF4H FP inh	MT1-MMP act inh	MT1-MMP act inh RFP	others
OC(c1ccc(F)c(F)c1)c1nc(-c2ccc(Cl)cc2)cs1 (configuration not stated)	/	-27	3	/	/	/	-1	-2
O=C(C[C@H]1C/C=C\C[C@@H](Cc2ccc(F)cc2)C(=O)O[C@@H](c2ccccc2)CNC1=O)N[C@@H](CO)Cc1ccccc1	-16	-4	23	/	/	/	-2	-4
CCC(C)N(C(=O)C(F)(F)F)C(C(=O)NC1CCCCC1)c1ccncc1 (configuration not stated)	0	-22	-13	i	0	-6	2	6
CCCCNC(=O)c1nc(C2CCN(S(=O)(=O)c3c(F)cccc3F)CC2)oc1-c1ccccc1	/	-6	-64	/	/	/	-246	-84
CS(=O)(=O)N1CCN(C(=O)Nc2ccccc2)CC1	-6	-2	4	i	4	-8	-1	4
COc1ccccc1-c1c(C)nn2c(-c3ccccc3)cc(C)nc12	-3	/	6	i	-10	-5	2	-15
COc1ccc(N2CCN(C(CNC(=O)c3ccc4c(c3)OCO4)c3ccco3)CC2)cc1 (configuration not stated)	-11	-21	0	i	46	0	2	0
Cc1ccc(C)c(OCC(O)CN2CCN(CCN3C(=O)c4cccc5cccc(c45)C3=O)CC2)c1 (configuration not stated)	27	/	-112	i	-9	-11	8	-9
CCc1ccc(NC(=O)CSc2n[nH]c(C)c2[N+](=O)[O-])cc1	-3	/	-7	i	-3	21	3	2
Cc1nnsc1C(=O)Nc1ccccc1	-18	/	/	i	9	-6	-1	0
COc1cc(NC(=O)Cc2c(C(=O)O)n(C)c3ccccc23)cc(OC)c1OC	-9	-13	0	i	2	3	1	3
CCn1ncc(C2=NOC(C(=O)Nc3ccc4c(c3)OCO4)C2)c1C (configuration not stated)	-11	-4	29	i	-1	8	-1	-3
COc1ccc(COC(=O)CCS(=O)(=O)c2ccc(C)cc2)cc1F	/	-1	i	i	/	/	-14	-2
CCOC(=O)N1CCC2(CC1)C(C#N)=C(N)Oc1c2sc2nc(C)cc(C)c12	38	-6	33	i	12	7	-52	-5
CCn1c(SCC(O)c2ccccc2)nnc1-c1ccccc1 (configuration not stated)	17	/	/	i	?	3	-5	-1
Cc1cc([N+](=O)[O-])cc2c1NCC1CC=CC21 (configuration not stated)	-16	/	8	i	-3	8	-2	-7
O=C(CSc1ccc(-c2cccs2)nn1)N1CCCCCC1	-4	-8	/	i	2	0	0	5
CCCCCC1=NN2C(=O)CC(=O)N=C2S1	-4	-11	8	i	6	2	-3	2
COC/C=C/C1=CC2=CC(=O)C(C)(OC(=O)c3cnc4ccccc4n3)C(=O)C2=CN1CCCCO (configuration not stated)	-2	15	9	i	30	52	2	3	eIF4H FP inh retest=25;PABP FP inh retest=47
Brc1ccc(/C=N/N2CCN(C3c4ccccc4-c4ccccc43)CC2)s1	-10	/	/	i	-1	-2	2	1
COc1ccc(NC(=O)COC(=O)C2CC(=O)N(CCc3ccc(OC)c(OC)c3)C2)cc1Cl (configuration not stated)	-18	1	-2	/	/	/	4	5
c1ccc(C2Nc3ccccc3-c3nc4ccccc4n32)nc1 (configuration not stated)	-9	-17	-23	i	2	-2	5	0
CCC(C)NC(=O)c1cc(CC(C)C)on1 (configuration not stated)	-9	-11	-10	i	6	-2	4	8
CCOc1ccc(CNc2ccc(N3CCOCC3)c(C(=O)O)c2)cc1	-7	-2	/	i	-7	-2	0	1
Cn1cccc1/C=C1\CCC/C(=C\c2cccn2C)C1=O	-15	/	-248	i	61*	52*	-238	-7
COc1ccc(OC)c(S(=O)(=O)NCC(c2ccco2)S(=O)(=O)c2ccccc2)c1 (configuration not stated)	-9	-4	-2	i	/	/	-4	3
CCOC(=O)Cn1c(-c2ccccc2)cc(SC)c(C#N)c1=O	-17	-9	14	i	-5	-17	1	-5
CC(=O)Nc1ccc(NC(=O)C2(C)Cc3c(-c4cccc(NC(C)=O)c4)ccnc3O2)cc1 (configuration not stated)	/	-22	-18	/	/	/	2	10
CC1CC(C)CN(S(=O)(=O)N2CCCC(C(=O)NCCc3ccccc3)C2)C1 (configuration not stated)	-4	-4	6	i	/	/	-1	0
CCC(=O)NC(c1ccc(N(C)C)cc1)c1c(O)ccc2ccccc12 (configuration not stated)	0	7	6	i	0	-4	-2	-3
CCCc1nnc2n1N=C(c1ccc([N+](=O)[O-])cc1)CS2	-3	-16	7	i	6	-21	-1	-1
CCCc1cc(NCCOCCO)n2c(nc3ccccc32)c1C#N	/	-19	13	/	/	/	3	-2
Cc1cc(C)c(OCC(=O)OC(C)C(=O)N2CCc3ccccc32)c(C)c1 (configuration not stated)	-16	-15	7	i	/	/	2	6
CCCNC(=O)/C(C#N)=C1\N=C(NC(=O)c2ccco2)c2ccccc21	0	/	-5	i	2	-7	-3	1
CCC(=O)O[C@@H]1CC(=O)O[C@H](C)CC=CC=C[C@@H](O)[C@H](C)C[C@H](CC=O)[C@H](O[C@H]2O[C@H](C)[C@@H](O[C@H]3C[C@@](C)(O)[C@@H](OC(=O)CC)[C@H](C)O3)[C@H](N(C)C)[C@H]2O)[C@H]1OC	/	/	/	i	-6	0	/	/
CSc1ccc(-c2nc(CSCC(=O)NCCCN3CCCC3=O)c(C)o2)cc1	-8	-6	3	i	-1	-8	-1	-3
N#C/C(=C(/O)CCCl)c1ccccn1	2	-4	-50	i	4	5	1	7
CC(C)(C)c1ccccc1OCC(=O)NCc1ccccc1	-6	-15	13	i	30	0	-3	-5
O=C(Nc1cccc(/C=C/c2ccccn2)c1)c1ccc(-n2cncn2)c([N+](=O)[O-])c1	28	-17	4	i	/	/	-3	-8
COc1ccc2nc(NC(=O)CSc3nnc(N)s3)sc2c1	-14	5	/	i	5	7	5	0
N#C/C(=C\c1c(N2CCCCC2)nc2ccccn2c1=O)C(=O)NCc1ccco1	-9	/	8	i	-7	27	0	0
Cc1oc2nc(SCC(=O)NC3CCCCC3)nc(N)c2c1C	-11	-5	/	i	/	/	1	1
Cc1ccc(-c2nn(C)c(=O)c3ccccc23)cc1CNC(=O)c1ccco1	/	14	/	i	4	-14	-1	-6
O=C1OCCN1C(=O)[C@H]1[C@H](c2ccc(F)cc2)C(c2ccc(F)cc2)=NN1c1ccccc1	4	-9	-12	i	-13	-7	-1	3
Cc1cc(C(=O)CSc2nncs2)c(C)n1Cc1ccco1	-4	-55	-14	i	12	34	4	-12
Cc1noc(C)c1S(=O)(=O)N(C)C[C@H]1OCc2cnnn2CCCC(=O)N([C@H](C)CO)C[C@@H]1C	/	0	31	/	/	/	-5	5
Cc1ccc(NC(=O)c2cccnc2)c([N+](=O)[O-])c1	18	-11	-71	i	-2	1	1	5
COc1ccc(/C=N/N(C)C2=NS(=O)(=O)c3ccccc32)cc1	-3	-14	7	i	-2	-5	-10	-2
S=c1[nH]c2ccc3ccccc3c2[nH]1	1	/	6	i	46	0	1	3
Cc1ccc(NC(=O)c2ccc(OC(=O)CCN3C(=O)c4ccccc4C3=O)cc2)cc1	1	-17	-113	i	-8	-17	7	-1
CC1=C(C(=O)N2CCOCC2)CC(CC(=O)NC(c2ccccc2)c2ccccc2)C(=O)N1Cc1ccc(C(C)(C)C)cc1 (configuration not stated)	/	7	5	/	/	/	-3	-9
COc1ccc(C(=O)OCC(=O)Nc2ccc(N3CCOCC3)cc2)cc1	2	-9	20	/	/	/	1	1
CC1=C(C)CC(C(=O)NC2CCN(C(C)C)CC2)C(C(=O)O)C1 (configuration not stated)	-15	-6	11	i	19	-10	2	4
O=C1CCSc2cccc3cccc(c23)N1	-13	-11	/	i	-1	2	7	-2
CCCCc1nnc(NC(=O)CCS(=O)(=O)c2ccc(C)cc2)s1	18	-9	4	/	/	/	1	1
COC(=O)c1ccccc1NC(=O)Cn1nc2n(C)c3ccccc3n2c(=O)c1=O	/	/	/	i	9	-20	/	/
COc1cccc(/C=C/c2ccccn2)c1O	-8	/	-122	i	5	-6	2	4
Cc1onc(-c2ccccc2Cl)c1C(=O)NC1CCCCCC1	-3	-13	15	i	3	0	-2	1
Cc1ccc(NC(=O)CCC(=O)N2CCN(S(=O)(=O)c3ccc(C)cc3)CC2)cc1	-11	-8	3	/	/	/	-1	-2
CC(C)(C)c1ccc(OCc2ccc(C(=O)Nc3cccnc3)o2)cc1	56	-19	-7	i	-4	4	-1	-9

Remaining list, next part:
SMILES	CSC inhib	UUG fidelity	Env fusion inh	Rce1 inhib	PABP FP inh	eIF4H FP inh	MT1-MMP act inh	MT1-MMP act inh RFP	others
CSc1ccccc1NC(=O)c1csc(C)c1	-3	-17	-16	i	-5	-6	-2	2
Cc1ccccc1OCC(=O)O/N=C(\N)Cc1ccc(Cl)cc1	5	/	/	i	9	-5	0	2
CC(C)(C)OC(=O)NCC(=O)NCC(=O)OCc1ccccc1	4	/	/	i	-3	-2	2	6
O=C(Oc1ccc2ccc(O)cc2c1)c1ccccc1Cl	/	-23	-72	i	13	-5	2	1
COc1cc(CC(=O)OCC(=O)NCCc2ccc(S(N)(=O)=O)cc2)cc(OC)c1OC	/	-4	0	/	/	/	0	2
CC1CCN(c2ncnc3ccccc23)CC1	0	/	33	/	-6	-4	-2	-11
CC(=O)NN1C(=O)/C(=C/c2ccc(Br)o2)SC1=S	-1	-16	/	i	74	47	47	69	eIF4H FP inh retest=11;PABP FP inh retest=13
COC(=O)c1nccc2c1[nH]c1ccccc12	-4	-12	/	i	/	/	2	-1
COc1ccc(CN(C)CC(=O)Nc2cc(OC)c([N+](=O)[O-])cc2C)c(OC)c1	33	/	/	i	4	6	0	-7
CN(CCc1ccccn1)c1ncnc2[nH]ncc12	0	-7	/	/	-9	-1	-3	0
CCN(CC(=O)Nc1c(F)cccc1F)C(=O)c1ccc(OCC(=O)N2CCOCC2)c(OC)c1	/	-5	6	/	/	/	-2	5
COc1ccc(NC(C)=O)cc1NC(=O)c1cccc(S(=O)(=O)N2CCc3ccccc32)c1	0	11	14	/	/	/	3	-4
CC(=O)c1ccc(NC(=O)C2=CC(c3ccc4c(c3)OCO4)=NS(=O)(=O)N2C)cc1	-2	-9	3	i	5	-8	8	0
O=c1[nH]nc(CNc2ccc(C(F)(F)F)cc2)c2ccccc12	-1	-8	-10	i	0	-9	1	-6
O=C(CC1CCCCC1)NCc1ccccc1	-25	-8	-9	i	0	13	-4	-1
CCc1nc2c(OCCOC)cccn2c1N(C)C(=O)c1ccco1	/	-17	3	/	/	/	3	3
Cc1ccc(-c2nc(N)n(C(=O)Cc3ccccc3)n2)cc1	-2	-3	/	i	0	-13	1	2
[O-]/[N+](=N\Nc1ccc(Cl)cc1)c1ccccc1	/	-14	-48	/	/	/	6	2

Screening results deposited in PubChem BioAssay by several laboratories.
